26S disassembly = inhibitors of ATP-driven 26S proteasome dissociation, primary screen, biochemical, bead-based flow cytometry, GFP-tagged proteasome; anti-FLAG beads, GFP-proteasome disassembly; inhibition of disassembly, % (test concentration not listed); 24,000 compounds, 0.2% hits;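 active = above 40%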;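 note: plate controls were ATP control with full disassembly for no effect and ATP-gamma-S intact proteasomes for full effect; higher percent means more bead fluorescence retained so stronger block of disassembly; stock transfer was 100 nL into about 10 µL; wells with too few beads may also be inconclusive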
VCAM-1 up = enhancers of VCAM-1 display on endothelial cells, cell-based, plate reader, pooled HUVEC, TNFa stimulus (AID 455); HUVEC TNFa-induced VCAM-1 immunofluorescence, plate reader; numbers were filed only for top-ranked candidate wells; augmentation, % at 5 µM; 10,000 compounds, 0.2% hits;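 active = a compound raising TNF-alpha-driven VCAM-1 surface staining, with its hit status upheld on visual or statistical review; inactive = the rest, including hits rejected on review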;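 note: 0% = TNFa with vehicle and 100% = strongest image-checked hit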
The depositor's hits bear a star; i = inactive; / = no result given. Only part of the results is shown; count on the stated rates, not on these rows.

entry	canonical_smiles	VCAM-1 up	26S disassembly
1	CCCCNC(=O)C1CC(=O)N(C2CCCCC2)C1 (stereo unspecified)	/	-2.3
2	O=C1OC2CC3CC1CC(O)(C3)C2 (stereo unspecified)	/	-1.2
3	CCOc1cc(CN2CCN(C(=O)c3ccco3)CC2)ccc1OC	i	1.1
4	C/C(=N\O)c1ccc2c3ccccc3n(C)c2c1	/	-1.5
5	CN(C)CCn1c(C(=O)O)cc2ccccc21	/	0.9
6	Cn1c(C(=O)N2CCc3ccccc32)cc2c(=O)n3ccccc3nc21	/	2.8
7	CCOc1ccccc1-n1cnc2cc(C(=O)NCc3ccco3)ccc21	/	1.2
8	COc1ccc(S(=O)(=O)N2CCCC2C(=O)Nc2ccc(C)cc2)cc1 (stereo unspecified)	i	-1.8
9	Cc1ccc(-c2[nH]nc3c2C(c2ccoc2)C(C#N)=C(N)O3)cc1C (stereo unspecified)	i	0.6
10	CSc1nncc(-c2ccc(F)c(F)c2)n1	/	0.1
11	CCOC(=O)c1cnc(SCC)[nH]c1=O	i	0.1
12	Cn1c(=O)c(=O)n(C)c2cc(S(=O)(=O)N3CCOCC3)ccc21	/	-1.6
13	CCOC(=O)c1c(C)n(C)c2c(C)cc(O)c(OC(C)=O)c12	i	4.2
14	CCCCC(=O)N=c1sc2cc(S(C)(=O)=O)ccc2n1C	/	1.5
15	O=C(c1cnsn1)N1CCN(c2ccccn2)CC1	i	-0.9

Remaining list, next part
entry	canonical_smiles	VCAM-1 up	26S disassembly
16	CCOC(=O)c1nn(-c2ccc(OC)cc2)c(=O)c2c(NC(=O)c3ccco3)scc12	/	0.2
17	O=C(NCCN1CCN(c2ccccc2)CC1)C1CCN(S(=O)(=O)N2CCOCC2)CC1	/	-0.5
18	CC(=O)c1cccc(NC(=O)c2cc(-c3ccc(F)cc3)on2)c1	/	-0.3
19	O=S(=O)(Nc1nc2ccccc2nc1NCc1ccco1)c1cccs1	i	5.3
20	Clc1ss/c(=N\c2ccccn2)c1Cl	i	-2.0
21	O=C1c2ccccc2C(Nc2ccc3nc(-c4cccnc4)[nH]c3c2)N1Cc1ccco1 (stereo unspecified)	i	13
22	Cc1cc(-c2nc3ncccc3o2)ccc1NC(=O)CC(C)C	/	0.7
23	CCOc1ccc(C2/C(=C(/O)c3ccccc3)C(=O)C(=O)N2CCCN(C)C)cc1OC (stereo unspecified)	i	-3.0
24	COC(=O)c1cc2oc(C)cc2n1CC(=O)Nc1cc(C)cc(C)c1	/	-1.1
25	CN(CCCNC(=O)C1CCN(S(=O)(=O)N2CCC3(CC2)OCCO3)CC1)Cc1ccccc1	/	0.7
26	COc1ccc(Cc2nc(-c3ccc(-n4cccc4)cc3)no2)cc1OC	/	1.8
27	CN(C)CCCN1C(=O)c2oc3ccccc3c(=O)c2C1c1cccs1 (stereo unspecified)	i	-4.0
28	COc1ccc(N(CC(=O)NCc2ccco2)S(=O)(=O)c2c(C)nn(C)c2C)cc1	/	0.0
29	CN1C(=O)CSc2ccc(NC(=O)NCc3cccnc3)cc21	/	1.8
30	Cn1c(=O)n(Cc2ccccc2)c(=O)c2c1nc(NCC1CCCO1)n2Cc1ccccc1 (stereo unspecified)	i	-2.8

More entries:
entry	canonical_smiles	VCAM-1 up	26S disassembly
31	CC1CCN(C2CC(=O)N(c3ccc(Br)cc3Br)C2=O)CC1 (stereo unspecified)	/	0.7
32	CSC1=NCCN1C(=O)Cc1cccs1	/	0.6
33	COCCn1nnnc1C(c1cc2cc(OC)ccc2[nH]c1=O)N1CCC(Cc2ccccc2)CC1 (stereo unspecified)	i	7.8
34	CCN1CCCC1CNC(=O)C1c2ccccc2C(=O)N(CCOC)C1c1ccc(F)cc1 (stereo unspecified)	/	0.3
35	CCOc1ccccc1C(=O)NC(C)c1ccc2c(c1)OCO2 (stereo unspecified)	i	-0.3
36	CSc1cccc(NC(=O)C2CCN(S(C)(=O)=O)CC2)c1	i	-0.8
37	COc1cc(C(=O)NCc2nnc(SCC(=O)Nc3cccc(C)c3)o2)cc(OC)c1OC	/	-0.6
38	Cc1c(C(=O)N2CCOCC2)sc2ncn(CC(=O)N3CCC(C)CC3)c(=O)c12	/	1.2
39	COc1ccc(CNC(=O)c2cnn3c(C(F)F)cc(C)nc23)cc1OC	/	-0.4
40	CCOC(=O)CSc1nc2sc(C)c(C)c2c(=O)n1C	i	-1.5
41	CC(C)(C)OC(=O)N1CC=C2C(C#N)=C(N)C(C#N)(C#N)C(c3cccs3)C2C1 (stereo unspecified)	i	6.9
42	Cc1ccc(NC(=O)C2(N(CC(C)C)C(=O)Cn3nnnc3N)CCCCC2)cc1	/	-1.0
43	Cc1nn(-c2ccccc2)c(C)c1/C=N/O	i	-0.5
44	CCCNC(=O)c1cc(-c2ccc(Br)cc2)on1	/	0.3
45	COc1ccc2c(c1)CCc1c(C(=O)N3CCc4ccccc4C3)noc1-2	/	2.1

(list continues)
entry	canonical_smiles	VCAM-1 up	26S disassembly
46	CCC1=C/C(=C/N(C)c2ccccc2)C(=O)S1	/	1.2
47	CCOC(=O)c1nn(-c2sc(C(=O)OC)c(C)c2C(=O)OC)cc1O	i	-0.3
48	O=C(Cc1cccs1)N(c1ccc(Cl)cc1)C1C=CS(=O)(=O)C1 (stereo unspecified)	/	0.7
49	Cc1ccc(-c2nc3ncccc3o2)cc1NC(=O)c1ccco1	i	1.0
50	COc1ccccc1OCC(=O)Nc1cccc(-c2nc3ccccc3o2)c1	i	-0.2
51	CC1=C(c2ccc(Cl)cc2)[N+](=O)C(C)(C)N1[O-]	i	-3.9
52	Cc1ccc(N2CCN(S(=O)(=O)N(C)C)CC2)c(C)c1	i	-1.1
53	Cc1ccccc1NC(=O)CN1CCC(NC(=O)Nc2ccccc2)CC1	i	0.1
54	COc1ccc2c(CCNC(=O)c3ccco3)c[nH]c2c1	/	6.7
55	O=C(Nc1cccnc1)c1ccc2c(c1)OCO2	i	-1.8
56	CC(C)CCN1CC(C(=O)NCc2ccccc2)CC1=O (stereo unspecified)	i	-0.6
57	O=C(NC1CCCCC1)C1CCCN(S(=O)(=O)c2cnc[nH]2)C1 (stereo unspecified)	/	-0.1
58	CC1CCN(Cc2ccc(NC(=O)C3CCN(c4nnc(-n5cccc5)s4)CC3)cc2)CC1	i	-0.2
59	CCOc1ccc(-c2nc(C#N)c(N3CCN(Cc4ccccc4)CC3)o2)cc1	/	-0.6
60	Cc1ccc(C2=N/C(=C/N3CCOCC3)C(=O)O2)cc1	i	-1.2

Reprinted at random: two entries already listed
entry	canonical_smiles	VCAM-1 up	26S disassembly
58	CC1CCN(Cc2ccc(NC(=O)C3CCN(c4nnc(-n5cccc5)s4)CC3)cc2)CC1	i	-0.2
52	Cc1ccc(N2CCN(S(=O)(=O)N(C)C)CC2)c(C)c1	i	-1.1

(listing goes on)
entry	canonical_smiles	VCAM-1 up	26S disassembly
61	CC(=O)Oc1c(S(=O)(=O)c2ccc(C)cc2)c(C)nn1-c1ccccc1	/	0.9
62	COCC(=O)Oc1c(S(=O)(=O)c2ccc(C)cc2)c(C)nn1-c1ccccc1	/	-1.7
63	CC1Cc2nc(SCC(=O)Nc3ccccc3F)n(C)c(=O)c2S1 (stereo unspecified)	i	1.1
64	CCc1nn(CC(=O)NCCCN2CCc3ccccc3C2)c(=O)c2cc3sccc3n12	i	3.5
65	O=C(NCC1CCCO1)C1CC(c2ccc(Cl)c(Cl)c2)=NO1 (stereo unspecified)	i	1.0
66	[O-][n+]1c2c(nn1-c1ccccc1Cl)-c1nonc1CC2	i	0.2
67	COc1cccc(C2CC(c3ccc(C)cc3)n3ncnc3N2)c1 (stereo unspecified)	/	1.1
68	CCn1c(N)c(C(=O)NCCCOC)sc1=S	/	-1.0
69	O=C(CCC1CCCCC1=O)c1ccccc1 (stereo unspecified)	/	0.6
70	COc1ccccc1NC(=O)CN1CCN(S(=O)(=O)c2ccc(Br)cc2)CC1	/	-0.5
71	Cc1nn(C)c(C)c1CNC(=O)c1cc2n(n1)C(C(F)(F)F)CC(c1cccs1)N2 (stereo unspecified)	i	0.8
72	Cn1c(C(=O)NCCCN2CCCC2=O)cc2c(=O)n(C)c3ccccc3c21	/	0.1
73	Cc1nc2ccc(C(=O)O)cc2c2c1CC(C)S2 (stereo unspecified)	i	-0.7
74	COC(=O)Nc1ccc(S(=O)(=O)N2CCCc3ccccc32)cc1	/	0.4
75	O=C(CN1C(=O)C2C3C=CC(C3)C2C1=O)N1CCc2ccccc2C1 (stereo unspecified)	/	-0.7

Numbers 1 through 2, quoted:
entry	canonical_smiles	VCAM-1 up	26S disassembly
1	CCCCNC(=O)C1CC(=O)N(C2CCCCC2)C1 (stereo unspecified)	/	-2.3
2	O=C1OC2CC3CC1CC(O)(C3)C2 (stereo unspecified)	/	-1.2

(cont.)
entry	canonical_smiles	VCAM-1 up	26S disassembly
76	Cc1ccc2c(c1C)NC(C(=O)O)C1CC=CC21 (stereo unspecified)	i	37
77	O=C(O)Cn1c(O)c(C=Nc2ccccc2)sc1=S	/	-1.4
78	CCC1CCCCN1CCNC(=O)c1[nH]c(C)c(C(C)=O)c1C (stereo unspecified)	/	1.2
79	O=C1C(CCS(=O)c2ccccc2)C(=O)N(c2ccccc2)N1c1ccccc1 (stereo unspecified)	i	0.1
80	Cn1c(=O)[nH]c(=O)c2c1nc(CN1CCN(c3ccccc3F)CC1)n2CCCc1ccccc1	/	0.2
81	Cc1nn(Cc2ccc(Cl)c(Cl)c2)c(C)c1NC(=O)c1noc2c1CCCCC2	/	-0.9
82	N#CCc1nc2c3c4c(sc3ncn2n1)CCCC4	i	-10
83	Cc1cc(-c2ccccc2)nc2cc(C(=O)NCCCn3ccnc3)nn12	i	0.3
84	CCOC(=O)C1CCN(c2cc(C)nc3cc(-c4cccc(F)c4)nn23)CC1	i	30
85	Cc1ccc(S(=O)(=O)Cc2ccc(C(=O)N3CCN(c4cc(C)ccc4C)CC3)o2)cc1	/	1.6
86	CCOC(=O)C1=C(c2ccccc2)N2CCN=C2S1	i	0.8
87	CCn1ncc(Br)c1C(=O)Nc1cc(C)ccc1F	/	0.9
88	Cc1nc2ccc(S(=O)(=O)NCC(=O)NCc3ccc4c(c3)OCO4)cc2s1	/	7.5
89	COc1cc(C(=O)N2CCC(c3nc(-c4cccnc4)no3)CC2)cc(OC)c1OC	i	0.5
90	NS(=O)(=O)c1ccc(C(=O)O)cc1	i	0.8

(further entries)
entry	canonical_smiles	VCAM-1 up	26S disassembly
91	CC(C)N1CC23C=CC(O2)C(C(=O)OCc2ccccc2)C3C1=O (stereo unspecified)	/	-0.4
92	Cc1cccc(-n2ncc3c(NCc4cccs4)ncnc32)c1	i	1.8
93	CCC(=O)Nc1ccc2nc(SCC(=O)N3CCCC3)sc2c1	i	-0.8
94	Cc1cc(C)n2cc(CSCc3ccco3)nc2n1	i	-1.2
95	COC(=O)Cn1ncn2c(cc3oc(C)cc32)c1=O	/	0.5
96	COc1cccc(N2CCN(Cc3nc(N)nc(Nc4ccccc4)n3)CC2)c1	i	1.0
97	O=C(COc1ccc(S(=O)(=O)NC2CCCCC2)cc1)N1CCN(c2ccc(F)cc2)CC1	/	-0.3
98	N#CC1=C(N)Oc2c(ccc3cccnc23)C1c1cccnc1 (stereo unspecified)	i	-0.6
99	Cc1cccc(C)c1NC(=O)C(c1ccccc1)N1CCN(C(=O)c2ccco2)CC1 (stereo unspecified)	/	0.8
100	Cc1ccc(Cn2nnc3c(=O)n(CC(=O)OCc4ccccc4)cnc32)cc1	/	0.1
101	O=C(c1cccs1)N1CCN(C(=O)c2ccco2)c2ccccc2C1	/	-0.6
102	CCNC(=O)N1c2ccc(OCC)cc2C(C)=CC1(C)C	i	0.6
103	CCCNC(=O)c1c(C)cc(=O)oc1C	/	0.1
104	CCC1CCCCN1C(=O)CSc1nnc(CNC(=O)COc2ccc(Cl)cc2)o1 (stereo unspecified)	/	0.3
105	C[C@]12C=CC(=O)C=C1CC[C@@H]1[C@@H]2[C@@H](O)C[C@@]2(C)[C@H]1CC[C@]2(O)C(=O)COC(=O)CCC(=O)O	i	-0.2

Gathered by group: the entries above with bromine.
entry	canonical_smiles	VCAM-1 up	26S disassembly
31	CC1CCN(C2CC(=O)N(c3ccc(Br)cc3Br)C2=O)CC1 (stereo unspecified)	/	0.7
44	CCCNC(=O)c1cc(-c2ccc(Br)cc2)on1	/	0.3
70	COc1ccccc1NC(=O)CN1CCN(S(=O)(=O)c2ccc(Br)cc2)CC1	/	-0.5
87	CCn1ncc(Br)c1C(=O)Nc1cc(C)ccc1F	/	0.9

(further entries)
entry	canonical_smiles	VCAM-1 up	26S disassembly
106	O=C(O)CCc1nc(-c2cccs2)no1	/	0.0
107	Cc1ccc(CNC(=O)C2C3C=CC4(CN(Cc5cccnc5)C(=O)C24)O3)cc1 (stereo unspecified)	/	3.0
108	Cc1ccc(NC(=O)C2CC=CCC2C(=O)N2CCCCC2)cc1 (stereo unspecified)	i	-0.5
109	O=C(C1CCCCC1)N1CCC(c2nc3c(nnn3Cc3ccccc3Cl)c(=O)[nH]2)CC1	i	-2.2
110	CN(C(=O)c1ccc(=O)[nH]c1)C1(C(=O)NC2CCCCC2)CCCCC1	/	-1.5
111	CC(C)C(NS(=O)(=O)c1ccc2c(c1)oc(=O)n2C)C(=O)N1CCN(C2CCCCC2)CC1 (stereo unspecified)	/	-0.1
112	Cc1ccc(S(=O)(=O)N2CCC(C(=O)N3CCC[C@H]3C(=O)NCc3ccccc3)CC2)cc1	i	0.9
113	O=C(NCN1C(=O)C2C3C=CC(C3)C2C1=O)OC1CCCCC1 (stereo unspecified)	/	1.0
114	Cc1ccc(S(=O)(=O)NCCNC(=O)C2CCCNC2=O)cc1 (stereo unspecified)	i	-0.4
115	COc1ccc2c(c1)CCc1cc(C(=O)N3CCN(c4ccc(N5CCOCC5)nn4)CC3)sc1-2	i	-0.5
116	Cc1ccc(S(=O)(=O)n2nc(OC(=O)c3ccco3)cc2N)cc1	i	-2.1
117	O=C1c2cccnc2-c2ncccc21	/	-1.1
118	COc1ccc(C(=O)N2CCCc3ccccc32)cc1	i	-0.2
